# CapD inh: CapD enzyme inhibition. purified CapD enzyme, fluorescence intensity read-out; active compounds read low; some hits fall short of the stated cut. z-score (test concentration not listed). 140,000 compounds, 0.23% hits. AID 492967;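 active = z-score under -4 in either of two replicates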;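 also: stock transfer was 100 nL into about 40 µL; score is relative to mean and spread of the plate; one replicate is shown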
# AID504770: E. coli YBA685 growth inhibition, screen for V. cholerae RctB inhibitors; z-score (concentration not given with the values); 130,000 compounds, 0.27% hits; E. coli YBA685 rctB-dependent plasmid, OD600 growth, 3 h; active compounds read low;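 active = z-score under -2 on both plates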;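 also: wells of about 30 µL received 100 nL stock; score is relative to mean and SD of the test wells; the first replicate is given; strong numbers were not always called active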
# Starred values were filed as active, the others as inactive; . = not tested or not shown; & = joins results of further samples. Rows were taken by chance; overall some 0.41% were active at least once.
# The line under a structure holds: CapD inh | AID504770
Cn1c(=O)c2c(nc3n(Cc4ccccn4)c(-c4ccc(Br)cc4)cn23)n(C)c1=O
  -0.16 | .
Cc1ccc(NC(=O)/C(C#N)=C/c2cn(CC(=O)NCc3ccco3)c3ccccc23)cc1Cl
  . | -0.15
Cc1cccc(C2CCCCC2)c1O
  0.27 | -0.35
OCc1cc2c(cn1)[nH]c1ccccc12
  -0.005 | .
Cn1c(=O)c2sccc2n2c(CCCC(=O)NCc3ccc(F)cc3)nnc12
  0.035 | -0.7
CCCCN(C)C(=O)c1oc(=O)c2ccccc2c1-c1ccc(C)cc1
  2.21 | 0.25
CN1CCN(c2cc(-c3ccccc3)nc3ccccc23)CC1
  1.19&1.06 | 0.4&-0.35
OC(Cn1ccnc1)c1ccccc1 (stereo not given)
  1.38 | 1.1
Cc1ccc(N(C)C(=O)N2CCN(C(=O)N(C)c3ccc(C)cc3)CC2)cc1
  0.38 | 1.45
Cc1ccc(C(=O)N2N=C(C(F)(F)F)CC2(O)c2ccncc2)cc1 (stereo not given)
  -0.07 | .
CC(=O)O/N=C1\C(=O)N(Cc2cccc(C(F)(F)F)c2)c2ccc(Cl)cc21
  -3.85 | .
CCC(NC)c1ccco1 (stereo not given)
  . | -0.35
O=C(O)CSCC(=O)NC1CCN(Cc2ccccc2)CC1
  -0.04 | .
O=C(Nc1ccc(-c2csnn2)cc1)c1ccccc1C(F)(F)F
  -0.835 | 0.3
CC(C)(C)C1=CC2(C=C(C(C)(C)C)C1=O)Nc1ccccc1OC2c1ccccc1 (stereo not given)
  -0.55 | .
COC(=O)c1ccc(Oc2cccc(C(F)(F)F)c2)nc1
  -1.06 | 1.2
CCC(=O)Nc1nonc1-c1nc2ccccc2n1CCC(C)C
  22.1 | -0.15
C=CCNc1ncnc2c1ncn2C1OC(CO)C(O)C1O (stereo not given)
  0.28 | .
CCN(CC)/C(C)=N/S(=O)(=O)c1ccc(Cl)cc1
  . | 0.35
Cc1ccc2nc3c(cc(C(=O)NCCN4CCOCC4)c(=N)n3C(C)C)c(=O)n2c1
  23 | -1.9
Cc1cccc(Nc2nc3nonc3nc2N2CCCCCC2)c1C
  -0.305 | .
CCOc1cc(-c2nc3sc4c(c3c(=O)[nH]2)CCCC4)ccc1OCCOc1ccc(Br)cc1
  -0.035 | .
CN(Cc1cccs1)C(=O)c1cc(S(=O)(=O)N2CCOCC2)ccc1F
  . | -0.1
COc1ccc(C2SCCN2S(=O)(=O)c2ccc(F)cc2)cc1OC (stereo not given)
  -0.875 | .
CCCCNC(=O)c1cc2cccnc2n(Cc2ccccc2)c1=O
  11.8 | 0.25
O=C(Nc1ccccc1C(=O)NCCCN1CCOCC1)c1ccccc1
  -0.47 | -1.05
COC(=O)COc1ccccc1C1NC(=O)NC(C)=C1C(=O)Nc1ccccc1OC (stereo not given)
  -0.265 | -0.7
CN(CC(=O)Nc1ccc2c(c1)OC1(CCCCC1)O2)C1CCCCC1
  . | 1.55
CCOC(=O)CSc1nc(NCc2ccco2)c2ccccc2n1
  -0.2 | .
Cc1nc(C)c(-c2ccn(C(=O)NC(C)C)n2)s1
  0.415 | 0.8

# Shown as labelled records: entries from further up.
> CCN(CC)/C(C)=N/S(=O)(=O)c1ccc(Cl)cc1
  CapD inh: .
  AID504770: 0.35

> COC(=O)c1ccc(Oc2cccc(C(F)(F)F)c2)nc1
  CapD inh: -1.06
  AID504770: 1.2

# Other entries follow:
# The line under a structure holds: CapD inh | AID504770
CC(=O)NC1=NN(C(C)=O)C(/C=C/c2ccccc2)S1 (stereo not given)
  0.255 | 1.2
CN(Cc1ccccc1)C(=O)c1cc2ncc(Br)cn2n1
  -0.09 | 2.35
O=c1c2c3c(sc2nc2n1CCC2)CCCCC3
  . | 1.4
COc1ccc(C(=O)Sc2ccccc2)cc1
  -0.685 | 0.1
Cc1ccc(C(=O)Nc2cccc(C(F)(F)F)c2)cc1
  -0.815 | 0.25
O=C(Nc1cccc([N+](=O)[O-])c1)C1COc2ccccc2O1 (stereo not given)
  -0.4 | .
COC(=O)c1c(C(=O)OC)c(-c2ccc(Cl)cc2)n2c1CSC2
  -0.55 | .
O=[N+]([O-])c1cc(S(=O)(=O)Nc2ccc3oc4c(c3c2)CCCC4)ccc1Cl
  -0.08 | .
CC/C(=C(/CC)c1ccc(O)cc1)c1ccc(O)cc1
  -0.025&0.51 | 0.15
CCOC(=O)Cc1cc(C)[nH]c1C(=O)OCC
  0.14 | .
Nc1ccc2c(c1)C(=O)NC2=O
  . | -0.25
COc1ccc(-c2cc(C)no2)cc1S(=O)(=O)Nc1ccc(CN2CCCCC2)cc1
  0.88 | -0.5
CC1(C)CC(=O)C2=C(C1)OC1=C(C(=O)CC(C)(C)C1)C2c1cccnc1
  0.42 | 0.7
O=P(O)(C1Cc2ccccc2C1)C(O)c1ccco1 (stereo not given)
  7.92 | 0.2
O=C1CC(c2nc3ccccc3[nH]2)CN1c1ccccc1Cl (stereo not given)
  1.52 | 0.05
C=CCN1C(=O)CSc2ccc(C(=O)N3CCN(c4ccccn4)CC3)cc21
  0.11 | 0
O=C(Nc1ccc(S(=O)(=O)Nc2ncccn2)cc1)c1ccco1
  0.015 | .
CCNc1nc(NCC)nc(OCCNS(=O)(=O)c2ccc(C)cc2)n1
  -0.565 | .
CCOC(=O)c1sc2nc3c(c(-c4cccs4)c2c1N)CCCCC3
  0.11 | .
COC(=O)c1sccc1S(=O)(=O)N1CCCC1
  -0.03 | 1.2
COc1ccc(C(=O)N2CCN(C(C)C)CC2)cc1
  0.185 | 0.65
CS(=O)(=O)c1ccc(Oc2ccc(Cl)cc2)c(NC(=O)C2CC2)c1
  0.095 | .
CCOC(=O)c1c(C)n(-c2ccccc2)c2ccc(OC(=O)c3ccc(S(=O)(=O)N4CCOCC4)cc3)cc12
  -0.115 | .
CC(C)(C)N(C(=O)c1ccc(S(=O)(=O)N2CCCC2)cc1)C(=O)N1CCCCC1
  . | 1.45
CCCCCn1cn[nH]c1=S
  . | -0.3
OCC1(CO)COC(c2ccc(Cl)cc2Cl)=N1
  . | 0.05
Cc1ccccc1Nc1nc2nonc2nc1Nc1c(C)n(C)n(-c2ccccc2)c1=O
  -0.155 | .
O=C(NC(=S)N1CCN(c2ccccc2)CC1)c1ccccc1
  -0.48 | -0.55
Cc1ccccc1Nc1nnc(SCC(C)C)s1
  . | -1
CCC(=O)N1CCc2cc(S(=O)(=O)N(CC)c3ccccc3)ccc21
  0.025 | -0.05
CCOC(=O)COc1ccc2c(C)cc(=O)oc2c1
  48.6 | -0.75
O=C(COc1ccccc1)Nc1c(C(=O)c2ccccc2)oc2ccccc12
  0.41 | 0.15
COC(=O)c1ccc(NS(=O)(=O)c2ccc(OC)cc2)cc1OC
  0.235 | .
CCN1C=C(c2ccc3ccccc3n2)C(C#N)c2ccccc21 (stereo not given)
  79.6 | .
COc1cccc(C2C3=C(Nc4ncnn42)c2ccccc2OC3c2ccc(SC)cc2)c1 (stereo not given)
  -0.125 | .
CCSc1nc2nn(-c3ccccc3)c(=O)c-2c2n1CCCCC2
  . | -0.3
CCc1ccccc1NC(=O)Cc1ccc(-n2cccc2)cc1
  . | -0.45
Cc1cc(C)n2cc(CSCC(=O)O)nc2n1
  . | -0.55
C=CCn1c(CCCN2C(=O)c3cccc4cccc(c34)C2=O)nnc1SCC(=O)NCc1cccnc1
  2.85 | .
O=C(O)CCCNC1=NCCN1
  . | 0
O=C(Nc1cc(-c2nc3ccccc3o2)ccc1Cl)c1ccc2c(c1)OCCO2
  0.49 | .
Cc1ccc(Nc2nnc(-c3cc4cc(Cl)ccc4oc3=O)s2)cc1
  0.37 | 0.35
O=S(=O)(NCCN1CCOCC1)c1ccc(Br)cc1OC(F)(F)F
  -0.675 | .
CC(Oc1ccc(Cl)cc1Cl)C(=O)Nc1nccs1 (stereo not given)
  0.29 | -0.6
C/C(=N\O)c1c(O)cc(-c2ccccc2)n(-c2ccccc2)c1=O
  0.355 | 0.25

# One compound at a time, from the list above.
# O=S(=O)(NCCN1CCOCC1)c1ccc(Br)cc1OC(F)(F)F is listed with CapD inh: -0.675; AID504770: .
# Cc1ccc(Nc2nnc(-c3cc4cc(Cl)ccc4oc3=O)s2)cc1 is listed with CapD inh: 0.37; AID504770: 0.35
# CCc1ccccc1NC(=O)Cc1ccc(-n2cccc2)cc1 is listed with CapD inh: .; AID504770: -0.45

# (listing goes on)
# The line under a structure holds: CapD inh | AID504770
c1ccc(OCc2nc3ccccc3[nH]2)cc1
  0.435 | 0.1
CCOC(=O)c1nccn1CC(=O)Nc1ccccc1CC
  -0.445 | 0.95
Cc1ccc(C2=NN(C(=O)c3ccccc3)C(c3cccc([N+](=O)[O-])c3)C2)cc1 (stereo not given)
  -0.045 | .
O=C(Cn1cnc2ccccc2c1=O)OCCCN=C1NS(=O)(=O)c2ccccc21
  0.03 | .
CN1CCCN(C(=O)Nc2ccc(F)cc2)c2nc3ccccc3nc21
  . | -0.35
CCOc1ncccc1C(=O)Nc1ccnn1C(C)C1CC1 (stereo not given)
  . | -0.25
C#CCn1c(SCc2ccccc2)nc(-c2ccccc2)c1-c1ccccc1
  0.455 | .
Cc1cccc(NC(=O)c2ccc(Cn3cc(C(F)(F)F)ccc3=O)cc2)c1
  -0.12 | .
COc1cc2c(=O)n(Cc3ccccc3Cl)c(=O)n(CC(=O)NC3CCCCC3)c2cc1OC
  -0.12 | -0.8
CN(C)S(=O)(=O)c1cccc(C(=O)c2nccn2C)c1
  . | -0.75
O=C1/C(=C\c2ccco2)SC(=S)N1CN1CCN(C(c2ccccc2)c2ccccc2)CC1
  -1.62 | .
COC(=O)CC(=O)Nc1cc2c(cc1N1CCCC1)n(C)c(=O)n2C
  -0.455 | 0.35
CCOC(=O)C1=C(C(=O)OCC)SC(=C2C(=S)C(C)(C)N(C(=O)c3ccccc3)c3c(OCC)cccc32)S1
  0.41 | .
COc1ccc(C2CC(c3nc4ccccc4[nH]3)=NN2C(=O)c2ccc(Br)o2)cc1 (stereo not given)
  0.29 | -0.5
O=C(/C=C/c1cn(-c2ccccc2)nc1-c1cc2ccccc2o1)OCC(=O)c1ccc[nH]1
  . | 0.05
O=C(O)c1cc(N=Cc2ccccc2)ccc1O
  1.06 | 2.3
Cc1cccc(NC(=O)COC(=O)CC2CCCC2)c1C
  . | -0.4
CC(NC(=O)C1=NNC(=O)CC1)C12CC3CC(CC(C3)C1)C2 (stereo not given)
  . | -0.15
O=C(O)c1ccc(-c2ccccc2)cc1
  0.245 | 0.1
CN1C(C)(C)CC(NC(=O)Nc2ccc(F)cc2)CC1(C)C
  0.18 | 0.15
COC(=O)c1ccc(NC(=O)CSc2nc3c([nH]2)c(=O)n(C)c(=O)n3C)cc1
  0.92 | .
CN(CC(=O)NCc1ccc(Cl)cc1)S(=O)(=O)c1ccc2c(c1)CCCC(=O)N2
  1.02 | -0.75
CCOCC(=O)N1CCN(CC)CC1
  0.205 | 0.4
CCOc1ccc(-c2nc(C#N)c(N3CCN(CC)CC3)o2)cc1
  4.09 | 0.55
O=C(CN1C(=O)c2ccccc2S1(=O)=O)N1CCc2ccccc2C1
  0.095 | 1.75
Cc1cc(C)c(-c2cc(C(F)(F)F)no2)c(=O)[nH]1
  0.955 | 0.5
O=C(/C=C/c1ccc(OCc2cccc(Cl)c2)cc1)NCc1cccs1
  -0.15 | .
CSc1nc2ccccc2c(=O)n1-c1ccc(F)cc1F
  -0.155 | 2.65
CC1(C)CC(=O)c2cc(C(=O)NCCCN3CCOCC3)c(=O)n(-c3ccc(Cl)cc3)c2C1
  4.58 | .
CC(C)c1ccc(NC(=O)[C@@H](c2ccccc2)N2Cc3ccccc3C2=O)cc1
  0.135 | 0.9
COC(=O)c1ccc(-c2nc3ccccc3o2)cc1
  51.4 | 0.35
CC(C)(C)NS(=O)(=O)NC(C)(C)C
  -0.235 | .
COc1ccc(C2=NN(C(=O)c3ccc(Br)o3)C(c3ccc(OC)c(OC)c3)C2)cc1OC (stereo not given)
  0.305 | .
C=CCNc1oc(Cc2ccccc2)nc1C#N
  -0.295 | -0.55
O=C(NCc1ccccc1)Nc1ccccc1F
  0.02 | -0.2
NC(=S)N/N=C1\CCSc2ccc(F)cc21
  1.77 | .
COc1ccc(-c2cc(-c3ccccc3O)n(C3C(=O)Nc4ccc(Br)cc43)n2)cc1 (stereo not given)
  0.825 | 0.2
Cc1cc2cc(CN3C(=O)c4ccccc4C3=O)ccc2n1C
  . | -0.15
CSc1ccccc1NC(=O)CSc1ncccn1
  . | 2.5
N#C/C(=C\c1ccc(F)cc1)c1csc2ccccc12
  0.335 | -1.7
N#Cc1c(NS(=O)(=O)c2ccccc2)n(-c2ccccc2)c2nc3ccccc3nc12
  . | -1.15
Nc1ccccc1NC(=O)CCC(=O)O
  . | 2
Cc1cccc(C)c1NC(=O)c1cc(S(=O)(=O)N2CCN(c3ccccc3)CC2)ccc1F
  -0.505 | .
N/C(=N\O)c1ccc2c(c1)OCO2
  -0.17 | -0.5
COC(=O)Nc1ccccc1
  . | 0.15
CCCNS(=O)(=O)c1ccc(OCC(=O)NCCC2=CCCCC2)cc1
  0.17 | -0.25
COCCCn1c(=O)c2ccccc2n(CC(N)=O)c1=O
  . | -0.5
O=C(O)c1ccc(NC2OC(CO)C(O)C2O)cc1 (stereo not given)
  -6.54* | 1.25
O=C(Nc1cccc(O)c1)C1CC(c2cccc(Br)c2)=NO1 (stereo not given)
  -0.35 | 0.25
Cc1ccc(OCCn2c(CC(C)(C)C)nc3ccccc32)cc1
  -1.04 | -0.3
CCCCCc1nc2ccccc2[nH]1
  0.515 | -1.75
O=C1CC2(CCN(C(=O)c3ccccc3)CC2)Oc2ccccc21
  . | -0.4
